Mtb growth: M. tuberculosis H37Rv growth inhibitors, H37Rv strain (AID 1626); 220,000 compounds, 0.95% hits; M. tuberculosis H37Rv growth inhibition; higher % means a stronger effect; inhibition, % at 10 µM, or IC50 in µM where a hit was titrated;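 active = confirmed in a dose series; inconclusive = inhibition above 80% but not taken into the dose series; inactive = below 80% or under 30% at every dose of the series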;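 also: bacteria incubated seven days before Alamar blue readout; 0% = bacteria only wells and 100% = bacteria with antibiotic wells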
YopH inh: blocks Yersinia enterocolitica YopH tyrosine phosphatase. fluorescence Ex485/Em525. inhibition, %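 (about 10 µM by stock and volumes)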. 140,000 compounds, 0.16% hits. AID 898;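 active = inhibition of 50% or more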;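 also: controls were vehicle for no effect and minimum signal wells for full effect; inactives centre near -20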
Arbovirus inh: arbovirus infection inhibition. inhibition, % at 10 µM. arbovirus infection cell-based antiviral screen. AID 1251. 200,000 compounds, 0.37% hits;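 active = inhibition from about 30%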;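 also: bluetongue infection of BSR cells; cell survival read as ATP light after 72 h; 0% = infected wells without compound and 100% = uninfected wells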
Mtb betalactam: beta-lactam sensitization of Mtb H37Rv; M. tuberculosis H37Rv growth with meropenem, percent inhibition; hits of this screen are not shown here; inhibition, % at 25 µM; 330,000 compounds, 0.27% hits; AID 434955;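 active = about 74% or more and at least 40 points above the plate without the antibiotic, then above 30% in a dose series; inconclusive = first-round hits that could not be retested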;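 also: growth measured after seven days incubation then overnight dye step; 0% = bacteria only wells and 100% = bacteria with antibiotic; twin plates without the antibiotic show which effects depend on it; some results filed as inactive read as strong as hits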
RecA splice inh: Mtb RecA intein splicing inhibition | P9WHJ3 | cell-free RecA intein splicing, fluorescence | inhibition, %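 (about 9 µM by stock and volumes)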 | 290,000 compounds, 0.75% hits | AID 2221; in the data active = inhibition above about 30%; inconclusive = no clear call, values can overlap the other calls;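 also: 0% = vehicle wells and 100% = reference inhibitor control wells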
Target sequence (P9WHJ3 whole entry, looked up, canonical isoform): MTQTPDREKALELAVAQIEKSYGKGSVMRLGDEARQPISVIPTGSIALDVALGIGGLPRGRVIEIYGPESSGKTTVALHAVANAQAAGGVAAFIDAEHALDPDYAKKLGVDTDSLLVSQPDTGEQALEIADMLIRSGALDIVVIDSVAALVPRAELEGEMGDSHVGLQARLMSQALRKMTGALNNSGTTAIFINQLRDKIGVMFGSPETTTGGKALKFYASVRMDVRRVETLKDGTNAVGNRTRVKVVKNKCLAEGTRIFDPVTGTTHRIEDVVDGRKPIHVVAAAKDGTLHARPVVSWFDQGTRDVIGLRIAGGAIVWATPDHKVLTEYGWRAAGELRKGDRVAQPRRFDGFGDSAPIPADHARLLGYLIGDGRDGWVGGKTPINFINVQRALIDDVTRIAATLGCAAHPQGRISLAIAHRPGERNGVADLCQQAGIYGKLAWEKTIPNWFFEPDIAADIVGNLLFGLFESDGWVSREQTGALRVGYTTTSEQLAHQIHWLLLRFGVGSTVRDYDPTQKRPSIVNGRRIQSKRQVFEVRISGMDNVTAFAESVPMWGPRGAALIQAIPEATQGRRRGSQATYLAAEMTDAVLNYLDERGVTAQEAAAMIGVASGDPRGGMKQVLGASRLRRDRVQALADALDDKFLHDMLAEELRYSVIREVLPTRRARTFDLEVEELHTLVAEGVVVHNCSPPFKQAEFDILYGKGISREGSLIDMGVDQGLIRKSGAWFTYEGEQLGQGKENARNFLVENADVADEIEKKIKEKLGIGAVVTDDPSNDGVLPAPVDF
Arbovirus inh repeat: recorded beside Arbovirus inh, whose call it bears; inhibition, %; measured here: 10K subset replicate screen; many hits read low in the repeat;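 first of two repeat runs on a subset; 0% = infected and 100% = uninfected wells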
* marks the source's active call; other numbers are inactive results.

COc1ccc([C@@H]2[C@@H]3C(=O)N(C(C)(C)C)C(=O)[C@@H]3[C@]3(C)C(=O)N(c4cccc(F)c4)C(=O)N23)cc1 was read as Mtb betalactam -6 and RecA splice inh 0.6.
`c1ccc(-c2cn3c(n2)-c2ccccc2C3)cc1` gave Mtb growth -5%, YopH inh -39, Arbovirus inh -14, Mtb betalactam 0 and RecA splice inh -11.
CCCOC(=O)C(C)n1c(-c2ccccc2)nc2ccccc2c1=O (configuration not stated) was read as YopH inh -4, Arbovirus inh -12, Mtb betalactam 21 and RecA splice inh 5.2.
Screening CC(C)n1cc(CN2CCC(Oc3ccc(C(=O)N4CCCC4)cc3)CC2)cn1 returned Mtb betalactam inconclusive and RecA splice inh 3.5.
`COc1cc(Cl)c(CN2CCC(CO)(CCOc3ccccc3)CC2)cc1OC` gave Mtb betalactam 1 and RecA splice inh -0.9.
For CCOC(=O)Cc1csc(N/N=C\c2cccc(Br)c2)n1 the results were YopH inh -29, Arbovirus inh 5, Mtb betalactam -7 and RecA splice inh -1.4.
`CN1C(=O)N(C)C(=O)C2(Cc3cc(N)ccc3N3CCN(c4ccccc4F)CC32)C1=O` (configuration not stated) gave Mtb growth -4%, YopH inh -36, Arbovirus inh -4, Mtb betalactam 3 and RecA splice inh 10.
Screening CNc1nc(SC(C)C(=O)Nc2ccc(Cl)c(Cl)c2)nc(N2CCOCC2)n1 (configuration not stated) returned Mtb growth 5%, Arbovirus inh 7, Mtb betalactam 3 and RecA splice inh -1.4.
For CC1CC(C)CN(C(=O)CCc2nnc3ccc(N4CCCCC4)nn23)C1 (configuration not stated) the results were Mtb betalactam -2 and RecA splice inh 4.4.
O=C(NCc1cccs1)c1cc(-c2cccs2)on1 was read as Mtb growth 1%, YopH inh -51, Arbovirus inh 5, Mtb betalactam inconclusive and RecA splice inh -7.0.
Screening CCOC(=O)N1CCC(N2Cc3cccc(C(=O)Nc4ccc(F)cc4)c3C2=O)CC1 returned Mtb growth -2%, YopH inh -23, Arbovirus inh 6 and Mtb betalactam 0.
For CCn1cc(CN2CCCC(C(=O)Nc3ccc(-c4cscn4)cc3)C2)c(C)n1 (configuration not stated) the results were Mtb betalactam 2 and RecA splice inh 1.3.
Screening CCOC(=O)Cn1c(=O)oc2cc(S(=O)(=O)N(C)Cc3ccco3)ccc21 returned Mtb growth 0%, YopH inh -30, Arbovirus inh 4, Mtb betalactam -8, RecA splice inh 0.8 and Arbovirus inh repeat -4.
CCc1cccc(NC(=S)N(CCCOC(C)C)C2CCN(C(C)=O)CC2)c1 was read as Mtb betalactam 6 and RecA splice inh -2.0.
COC(=O)c1ccccc1NC(=O)/C=C/c1cc(OC)c(OC)c(OC)c1 was read as Mtb growth 1%, YopH inh -10, Arbovirus inh 27, Mtb betalactam -5 and RecA splice inh -2.3.
O=C(Nc1nc2c(Br)cccc2s1)C1CC1 was read as Mtb betalactam 4 and RecA splice inh 0.9.
`O=C(Oc1c(CN2CCOCC2)cc(Cl)c2cccnc12)c1ccccc1Cl` gave Mtb growth 2%, Arbovirus inh -11, Mtb betalactam 91 and RecA splice inh -2.8.
`Cn1nnnc1SCC(=O)Nc1nc2c(s1)CCCC2` gave Mtb growth -4%, YopH inh -25, Arbovirus inh 9, Mtb betalactam 9 and RecA splice inh 0.5.
`Cc1cc(N=Nc2ccc(C)c(N=Nc3cc(C)c(N)cc3N)c2)c(N)cc1N` gave Mtb growth 3%, Mtb betalactam 9 and RecA splice inh 1.3.
For CC(C)NC(=O)c1ccccc1NC(=O)C(C)Oc1ccccc1 (configuration not stated) the results were Mtb growth -4%, Arbovirus inh 1, Mtb betalactam 1 and RecA splice inh 2.2.
COc1ccc([C@H]2/C=C\CN(S(=O)(=O)c3ccc(C)cc3)[C@@H](C)C(=O)N2Cc2ccc(F)cc2)cc1 was read as Mtb growth -1%, Mtb betalactam -3 and RecA splice inh 4.5.
`CCOC(=O)C1(Cc2ccccc2C(F)(F)F)CCN(C(C)CCn2cccn2)CC1` (configuration not stated) gave Mtb growth -3%, Arbovirus inh 3, Mtb betalactam -4 and RecA splice inh 1.8.
COc1cc(NC(=S)NC(=O)c2ccccc2F)ccc1NC(=O)c1cccs1 was read as Mtb growth 0%, Arbovirus inh -3, Mtb betalactam -3 and RecA splice inh -0.7.
For CCNc1sc(C(=O)c2cccs2)c(N)c1C#N the results were Mtb growth 4%, YopH inh -25, Arbovirus inh 1, Mtb betalactam -4 and RecA splice inh 0.3.
`COc1cc(C(=O)NNC(=O)c2ccco2)cc(OC)c1OC` gave Mtb betalactam 1 and RecA splice inh -3.0.
For Cc1ccc(SCCC(=O)Nc2ccccc2C(=O)NC2CCCCC2)cc1 the results were Mtb growth -4%, YopH inh -10, Arbovirus inh 6, Mtb betalactam 4 and RecA splice inh -0.3.
Screening COCCCN(C(=O)CSCc1ccc(C)cc1)c1c(N)n(Cc2ccccc2)c(=O)[nH]c1=O returned Mtb betalactam -12 and RecA splice inh 0.4.
CCOC(=O)c1ccc(NC(=S)N(CCCN2CCN(C)CC2)Cc2cccs2)cc1 was read as Mtb growth 63%, Arbovirus inh -10, Mtb betalactam -1 and RecA splice inh -0.5.
`O=C(O)C1CCN(C(=O)c2ccc3c(c2)OCO3)CC1` gave Mtb betalactam -4 and RecA splice inh -0.6.
`Cc1ccc(-c2nc(CSCC(=O)N3CCOCC3)c(C)o2)cc1` gave Mtb growth -1%, YopH inh -31, Arbovirus inh 7, Mtb betalactam 3 and RecA splice inh 0.1.
For CCN(C(=O)COc1cccnc1[N+](=O)[O-])C1CCS(=O)(=O)C1 (configuration not stated) the results were Mtb growth 5%, YopH inh -15, Arbovirus inh 5, Mtb betalactam 6 and RecA splice inh -0.8.
Screening Cc1ccc(O)c(C(=O)c2cnc3c(c2)c(-c2ccc(F)cc2)c(C#N)c(=O)n3C)c1 returned Mtb growth -4%, Arbovirus inh 4, Mtb betalactam 73 and RecA splice inh 2.3.
Screening COc1ccc2oc(=N)c(C(=O)NCc3ccccc3)cc2c1 returned Mtb betalactam -2 and RecA splice inh -21.
Screening O=C1c2ccccc2C(Nc2ccc3c(c2)OCO3)N1Cc1ccco1 (configuration not stated) returned Mtb growth 10%, YopH inh -11, Arbovirus inh -10, Mtb betalactam -1, RecA splice inh 1.0 and Arbovirus inh repeat -5.
Cc1cccc(C(=O)O/N=C(\c2ccccc2)c2cccnc2)c1 was read as Mtb growth 2%, YopH inh -23, Arbovirus inh 3 and Mtb betalactam 40.
Screening O=C(c1ccncc1)c1ccc(Br)cc1 returned Mtb growth -4%, YopH inh -30, Arbovirus inh 6, Mtb betalactam -8 and RecA splice inh 0.0.
`Cn1ncc2c(Nc3cc(Cl)cc(Cl)c3)ncnc21` gave Mtb betalactam -3 and RecA splice inh -1.1.
For c1ccc(CCc2nc3ccccc3[nH]2)cc1 the results were Mtb growth -2%, Arbovirus inh -5 and Mtb betalactam -4.
`N/C(=N\OC(=O)Cc1ccc(-c2ccccc2)cc1)c1cccnc1` gave Mtb growth 4%, YopH inh -17, Arbovirus inh 11, Mtb betalactam 9 and RecA splice inh 5.0.
Screening Cc1ccc(S(=O)(=O)N2CCN(CC(=O)N3CCOCC3)CC2)cc1 returned Mtb betalactam 0 and RecA splice inh -3.6.
`CCOC(=O)N/N=C/C=C/c1ccccc1` gave Mtb growth -6%, YopH inh -27, Arbovirus inh 0, Mtb betalactam -3 and RecA splice inh -1.9.
Screening CN=C1SC(C(=O)O)CC(=O)N1C (configuration not stated) returned Mtb growth -4%, YopH inh -9, Arbovirus inh 1, Mtb betalactam -2 and RecA splice inh 0.4.
Screening CC(NCc1ccc(S(N)(=O)=O)cc1)C(=O)Nc1cc([N+](=O)[O-])ccc1Cl (configuration not stated) returned Mtb growth -2%, Arbovirus inh 11, Mtb betalactam -1 and RecA splice inh 3.6.
For O=C(/C=C/c1ccccc1)C1=C(O)C(=O)N(CCO)C1c1ccc2c(c1)OCO2 (configuration not stated) the results were Mtb growth 0%, Arbovirus inh -1, Mtb betalactam -11 and RecA splice inh 2.7.
N/C(=N\OC(=O)C1CCCCC1)c1ccncc1 was read as Mtb growth -1%, Arbovirus inh 4, Mtb betalactam 2 and RecA splice inh -2.6.
Screening Cc1ccc(C(OCC(O)CN2CCCCC2CO)c2ccccc2)cc1 (configuration not stated) returned Mtb growth -2%, Arbovirus inh -22, Mtb betalactam -3 and RecA splice inh -0.5.
Screening Cc1noc(C)c1COc1ccc(C(=O)OCC(=O)NC(=O)C2COc3ccccc3O2)cc1 (configuration not stated) returned Mtb growth 16%, YopH inh -42, Arbovirus inh -1 and RecA splice inh 0.4.
`CCCCn1nc(C(=O)N[C@@H](CCSC)c2nc3ccccc3[nH]2)c2ccccc2c1=O` gave Mtb growth 23%, YopH inh -29, Arbovirus inh -28, Mtb betalactam 100 and RecA splice inh 15.
Screening Cc1ccc(NC(=S)NNC(=S)Nc2ccc(C)cc2C)cc1 returned Mtb growth 13%, Arbovirus inh -2, Mtb betalactam 1 and RecA splice inh 6.2.
Screening COc1ccc(N2CCN(C(=O)C(CCSC)N=C3NS(=O)(=O)c4ccccc43)CC2)cc1 (configuration not stated) returned Mtb growth 2%, YopH inh -46, Arbovirus inh 9, Mtb betalactam -7 and RecA splice inh -2.6.
For CCN(CC)C(=O)c1sc(NC(=O)c2cccnc2)c(C(=O)OC)c1C the results were Mtb growth 0%, YopH inh -31, Arbovirus inh 12, Mtb betalactam -10 and RecA splice inh -2.4.
`O=C(CCN1CCN(CCO)CC1)Nc1ccc(OCc2ccccc2)cc1` gave Mtb growth 1%, YopH inh 6, Arbovirus inh -11, Mtb betalactam 15 and RecA splice inh -1.7.
For O=C(/C=C/NCc1cccnc1)c1ccc(-c2ccccc2)cc1 the results were Mtb betalactam 2 and RecA splice inh 1.8.
`COc1ccccc1CN1C(=O)[C@@H]2C(CC(N)=O)NC3(C(=O)Nc4c3ccc(Cl)c4C)[C@@H]2C1=O` (some centres not stated) gave Mtb growth -10%, YopH inh -45, Arbovirus inh 2, Mtb betalactam 3 and RecA splice inh 0.3.
CCc1ccccc1N(C(=O)c1cccs1)C1C=CS(=O)(=O)C1 (configuration not stated) was read as Mtb growth -4%, YopH inh -44, Arbovirus inh 2, Mtb betalactam -1 and RecA splice inh -0.3.
Screening COc1ccc(C(=O)OCC(=O)Nc2ccc3[nH]c(=O)[nH]c3c2)cc1 returned Mtb betalactam 1 and RecA splice inh 0.3.
CCC(C(=O)NC1CCCC1)N(C(=O)Cn1nnc(-c2ccc(C)o2)n1)c1ccc(OC)c(OC)c1 (configuration not stated) was read as Mtb betalactam -1 and RecA splice inh 0.7.
`CCOc1ccccc1/C=C/C(=O)NCC(=O)N1CCC(N(C)C2CCCCC2C)CC1` (configuration not stated) gave Mtb betalactam 7 and RecA splice inh 0.3.
`Cn1cccc1/C=N/NC(=O)CSc1nc2ccccc2[nH]1` gave Mtb growth -4%, Mtb betalactam -4 and RecA splice inh 2.8.
`CCOc1ccc(N(CC(=O)Nc2ccccc2C(=O)N2CCOCC2)S(=O)(=O)c2ccc(F)cc2)cc1` gave Mtb growth -4%, YopH inh -28, Arbovirus inh -7, Mtb betalactam 9 and RecA splice inh 0.9.
COc1ccc2c(c1)CCc1c(C(=O)N3CCOCC3)noc1-2 was read as Mtb growth -4%, YopH inh -25, Arbovirus inh -3, Mtb betalactam 1 and RecA splice inh 1.8.

High-throughput results as filed in PubChem.

Not all compounds are listed, so the mix of outcomes need not match the whole.
